Screening data as filed in PubChem.
RN4220 kill: growth inhibition of S. aureus RN4220, primary screen, OD600 | 16 h | AID 1259311, 2017 | 330,000 tested, 0.33% active | inhibition, % (test concentration not listed);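 active means z-score of -3 or lower and OD600 up to 0.18 on both plates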;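 further: plate controls were untreated cells for no effect and reference antibiotic for full effect; stock transfer was 100 nL into about 80 µL; one replicate is shown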
BJeLR viability: MLPCN primary cell-based screen for lethality selective to Ras in HRASV12 cells. BJeLR (HRASV12) viability, CellTiter-Glo ATP luminescence, 48 h; reference of the scale not given here. inhibition, % (concentration not given with the values). 300,000 tested, 0.17% active;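 active means replicate mean above 50%; inconclusive means above 50% but judged a plate artefact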;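 further: 50 nL library stock added to about 25 µL; numbers are from one replicate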
PrP UTR inh: inhibition of PrP 5' UTR reporter expression | cell-based PrP 5' UTR mRNA reporter, plate reader | inhibition, % (test concentration not listed) | 340,000 tested, 0.35% active | AID 488862, 2010;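 active means every replicate at 50% or more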;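 further: 0 = median of the neutral control wells; tested in H4 reporter cells; numbers are from one replicate; inactives centre near -14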
Autofluor counter: counter-screen for toxin protease inhibitors: compound fluorescence; AID 624483; 360,000 tested, 3.1% active; fluorescence intensity (concentration not given with the values); compound autofluorescence counterscreen, microsphere flow cytometry; active compounds read high;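 active means at least 3 SD above the mean of all compounds, about 16000 in these data; inconclusive means too few beads counted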;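 further: 100 nL of 1 mM stock went into each well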
Mtb hypoxia rep: PubChem AID 1159583; fluorescence inhibition, % (test concentration not listed); M. tuberculosis hypoxia-regulated fluorescent reporter, fluorescence; 300,000 tested, 0.1% active;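 active means 35 to 45% if threefold the growth effect, above 45% if 1.5-fold the growth effect; inactive means the rest, general growth blockers included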;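 further: wells of about 50 µL received 100 nL stock; 0% = vehicle wells and 100% = reference inhibitor wells; whole bacteria with a GFP reporter of the hypoxia response; strong numbers were not always called active; many hits fall short of the cut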
ugtP null kill: growth inhibition of ugtP-null S. aureus, primary screen, RN4220 ugtP deletion, OD600 | 16 h; some inactives read as strong as hits | growth inhibition, % (concentration not given with the values) | 330,000 tested, 0.54% active | AID 1259309, 2017;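 active means z-score under -3 and OD600 up to 0.15 on both plates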;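 further: plate controls were untreated wells for no effect and antibiotic for full effect; wells of about 80 µL received 100 nL stock; the first replicate is given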
Mtb hypoxia rep growth: further read-out of Mtb hypoxia rep, marked with its call; growth inhibition, %; measured here: M. tuberculosis growth (absorbance);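 0% = vehicle and 100% = reference antibiotic; read after six days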
Active calls of the source: *; ? = inconclusive; · = no result given.

SMILES	RN4220 kill	BJeLR viability	PrP UTR inh	Autofluor counter	Mtb hypoxia rep	Mtb hypoxia rep growth	ugtP null kill
Cc1cc(C)nc(NC(=O)/C=C/c2ccc(Cl)cc2Cl)c1	-0.6	-2	-32	2377	1	9	-12
O=S(=O)(NCC(c1ccco1)N1CCOCC1)c1ccc(Cl)cc1 (stereo unspecified)	-1.4	5	-1	10290	3	6	11
COc1cccc(CN2CC(C(=O)N(C)CCCC3CCCC3)CCC2=O)c1 (stereo unspecified)	4.0	-2	-20	4438	6	-4	-2
COC(=O)C1=C(c2cccc(OC)c2OC)C[C@@H]2CC[C@H]1N2C(=O)NCc1cccc2ccccc12	-14	-3	-23	3581	12	2	-6
CCCCNc1nc(Nc2ccc(C)c(Cl)c2)c2cnn(C)c2n1	-10	-10	-4	4332	-11	3	-48
Cc1cc(C)cc(OC(C)c2ccnc3nc(/N=C/N(C)C)nn23)c1 (stereo unspecified)	·	0	-12	9768	·	·	·
CCOc1cc(N2CCOCC2)c(OCC)cc1NC(=O)COC(=O)[C@@H]1CCCN1S(=O)(=O)c1ccccc1F	-1.4	0	-6	4264	22	14	5
O=C(O)c1ccc(N2CCc3ccccc32)c([N+](=O)[O-])c1	5.6	-4	-24	2996	10	3	6
Cc1ccc(NC(=O)CS(=O)CC(=O)N(c2ccccc2F)C(C)C(=O)NC2CCCC2)cc1 (stereo unspecified)	1.4	0	-11	3977	-10	-5	-3
Cc1cc(C)n2nc(C(=O)NN=Cc3c4ccccc4cc4ccccc34)nc2n1	3.2	·	·	·	-15	2	4
C#CC(C)(CC)NC(=O)Cn1nnc(-c2ccc(S(C)(=O)=O)cc2)n1 (stereo unspecified)	1.0	-18	-14	2945	·	·	3
COc1ccc([C@H]2/C=C\CN(Cc3ccc(N(C)C)cc3)[C@@H](C)C(=O)N2Cc2ccc(F)cc2)cc1	·	15	-38	3594	·	·	·
O=C1CN(C(=S)Nc2ccccc2Cl)CCN1	7.2	-9	1	3229	11	8	6
CC1CCN(C(=O)C2CCCN(S(=O)(=O)c3cccc4nsnc34)C2)CC1 (stereo unspecified)	3.4	-1	-14	4895	-1	15	4
COc1cc2c(C(=O)O)c(C)n(-c3ccccc3)c2c2ccccc12	1.8	10	-13	4620	7	-1	6
NC(=O)CNC(=O)C1CC2(CC(c3ccc(Cl)cc3)=NO2)CN1C(=O)c1ccc(Br)cc1 (stereo unspecified)	2.7	·	·	·	9	7	-1
CSc1ccc(/C=C/C(=O)Nc2ccccc2)cc1	3.7	·	-31	4199	-3	9	4
COc1cc(NC(=O)CCc2c(C)[nH]c(=O)c(C#N)c2C)cc(OC)c1	2.2	-2	-18	4962	10	2	4
O=C(C1CCCN1S(=O)(=O)c1cccc2nsnc12)N1CCCCC1 (stereo unspecified)	4.2	12	-13	4420	-7	7	3
CCCCOc1ccc(/C=C2/Sc3ccccc3C2=O)cc1	-3.4	12	-11	3992	·	·	-1
CC(=NOC(=O)Nc1ccccc1)c1ccc(C)cc1	13	·	·	·	11	4	1
CN(Cc1ccccc1)C(=O)c1[nH]cnc1C(=O)Nc1ccccc1	4.7	·	-26	4086	-5	0	0
Cc1ccc(-n2nc3c(=O)n(CCCC(=O)NCc4ccccc4C)nc(C)c3c2C)cc1	-3.4	-3	-4	5308	-12	1	-9
O=C(C1CC1)N1CCN(Cc2ccccc2)CC1	3.6	0	-11	·	5	3	13
CN1/C(=C\C(=O)CSc2nncn2C)C(C)(C)c2ccccc21	2.3	-3	-15	2528	8	6	1
Cc1ccc(-c2ccc(CO)o2)cc1N	-0.8	-4	-2	4618	-4	-1	-3
O=C(COc1ccc([N+](=O)[O-])cc1Cl)Nc1ccc2[nH]c(=O)[nH]c2c1	2.1	·	-15	4104	5	2	4
S=C(NCCN1CCOCC1)N/N=C/c1ccccc1	·	-1	-15	4166	·	·	·
O=C(COc1ncnc2ccccc12)Nc1ccc(Cl)c([N+](=O)[O-])c1	1.5	-3	-12	2564	-13	7	-7
CCOC(=O)C1(CCOc2ccccc2)CCN(Cc2ccc(OC)c(COC)c2)CC1	2.8	8	0	4237	-2	2	13
Cc1cc(NC(=O)Nc2cc(C)nn2-c2ccccc2)n(-c2ccccc2)n1	2.8	-7	-17	4081	·	·	5
C=CCn1c(SC(C)C(N)=O)nc2sc(CC)cc2c1=O (stereo unspecified)	0.8	-2	-25	3260	-9	3	4
CC(C)(C)c1ccccc1NC(=O)c1cccnc1	3.6	3	-11	16565*	9	6	3
Oc1cccc(/C=N/Nc2ccc(Cl)nn2)c1O	·	3	13	3950	·	·	·
Cc1csc(SCC(=O)Nc2ccccc2C)n1	2.8	·	-24	3758	-3	3	3
COc1ccccc1NC(=O)c1cc(C(=O)Nc2ccccc2OC)cc([N+](=O)[O-])c1	5.4	2	-11	2930	-8	-9	1
C=CCc1ccccc1OCC(O)CNC(C)C (stereo unspecified)	6.2	-7	-4	4479	6	14	9
CC1(NC(=O)Cc2csc(-c3cccc(Cl)c3)n2)CCS(=O)(=O)C1 (stereo unspecified)	3.7	·	·	6196	4	-5	1
Cc1ccccc1OCCSc1nnc(-c2ccncc2)n1C	1.7	-3	-25	19279*	6	7	9
Cc1cc(S(=O)(=O)N2CCN=C2c2ccccc2)c(Cl)cc1Cl	14	1	-20	2403	-3	7	26

Some entries already given, limited to Mtb hypoxia rep, Autofluor counter and RN4220 kill:
structure,Mtb hypoxia rep,Autofluor counter,RN4220 kill
C=CCc1ccccc1OCC(O)CNC(C)C (stereo unspecified),6,4479,6.2
C=CCn1c(SC(C)C(N)=O)nc2sc(CC)cc2c1=O (stereo unspecified),-9,3260,0.8

(further entries)
SMILES	RN4220 kill	BJeLR viability	PrP UTR inh	Autofluor counter	Mtb hypoxia rep	Mtb hypoxia rep growth	ugtP null kill
COc1cc(C=NNc2ccc(Cl)c(C(=O)O)c2)ccc1OC(=O)c1ccco1	4.8	·	·	·	6	8	3
Cc1ccc(S(=O)(=O)N2CCOCC2)cc1C(=O)OCc1nnc(-c2ccccc2)o1	0.5	-10	-10	?	-1	11	0
O=C(CSc1ccc2nnc(-c3ccccn3)n2n1)NCc1ccco1	4.7	-2	-19	5723	0	5	3
CCN(Cc1ccccc1)C(=O)COc1ccccc1	1.2	-6	-35	4276	22	10	2
O=C(COC(=O)COc1ccc(Cl)cc1)NC1CCCC1	2.0	·	6	2982	0	-4	3
O=C(/C=C/C=C/c1ccccc1)CC1(O)C(=O)N(CCc2ccccc2)c2ccccc21 (stereo unspecified)	13	-1	-11	2379	·	·	20
CCC(c1nnnn1Cc1ccco1)N(CCc1ccccc1)Cc1cc2cc(C)ccc2[nH]c1=O (stereo unspecified)	6.9	-6	-35	2370	·	·	-20
O=C(N/N=C/c1ccncc1)c1ccccc1[N+](=O)[O-]	·	1	-1	2516	·	·	·
Cc1ccc(-n2nc3c(=O)n(CC(=O)NCc4ccccc4Cl)nc(C)c3c2C)cc1	1.1	0	-2	5652	7	14	3
C[C@H](CO)N1C[C@H](C)[C@@H](CN(C)S(C)(=O)=O)Oc2ccc(NC(=O)Cn3cnnn3)cc2C1=O	4.6	·	-21	3772	-5	7	1
C=C(C)c1cccc(C(C)(C)NC(=O)N2CCCC(C)C2)c1 (stereo unspecified)	2.0	-7	-17	4436	·	·	-5
CC1=NN(c2ccc(Cl)cc2)C(=O)/C1=C\c1cccn1-c1ccc(S(N)(=O)=O)cc1	-12	-3	-33	1815	-3	0	-9
Cc1cccc(OCc2nnc(SCC(=O)Nc3cccc(C(=O)N4CCOCC4)c3)n2C)c1C	-4.3	-1	-19	2569	-4	8	3
COc1ccc(C(=O)Nc2nc(C)cc(C)n2)cc1	4.5	3	-5	4380	5	2	3
Cc1nn(C)cc1CN(C)C(=O)c1cc(-c2ccccc2)nc2ccc(Br)cc12	·	-1	-4	4119	·	·	·
O=[N+]([O-])c1ccccc1CN1CCN(Cc2c[nH]c3ccccc23)CC1	-3.4	-7	·	·	-6	-9	-11
O=C(NNC(=S)Nc1ccc(F)cc1)C1[C@H]2CCCC[C@@H]12 (stereo partly specified)	3.8	-17	·	·	22	18	2
Cc1noc(C)c1S(=O)(=O)N1CCC(C(=O)O)CC1	4.0	·	4	5913	9	3	3
COC(=O)c1ccccc1-c1ccc(/C=C2\C(=O)N(c3ccccc3)N=C2c2ccccc2)o1	-8.8	-4	-23	4358	-4	11	-14
COc1ccc(C)cc1NC(=O)COC(=O)c1c(C)nn(-c2ccccc2)c1C	4.5	·	-6	6470	·	·	3

A stretch from further up, as a working copy:
SMILES	RN4220 kill	BJeLR viability	PrP UTR inh	Autofluor counter	Mtb hypoxia rep	Mtb hypoxia rep growth	ugtP null kill
COC(=O)c1ccccc1-c1ccc(/C=C2\C(=O)N(c3ccccc3)N=C2c2ccccc2)o1	-8.8	-4	-23	4358	-4	11	-14
COc1ccc(C)cc1NC(=O)COC(=O)c1c(C)nn(-c2ccccc2)c1C	4.5	·	-6	6470	·	·	3

(list continues)
SMILES	RN4220 kill	BJeLR viability	PrP UTR inh	Autofluor counter	Mtb hypoxia rep	Mtb hypoxia rep growth	ugtP null kill
CCOC(=O)CN1C(=O)N[C@H](c2ccc(Br)cc2)C(C(C)=O)=C1C	·	-4	2	4108	·	·	·
CCOC(=O)N1CCN(C(=O)C2CCC(=O)N(CCCc3ccccc3)C2)CC1 (stereo unspecified)	3.6	1	-30	5998	16	12	-5
CCOC(=O)C1=C(N)n2c(sc(=Cc3ccco3)c2=O)=C(C(=O)OCC)C1c1ccco1 (stereo unspecified)	4.1	·	·	·	0	1	6
CCC(SC1=N/C(=C/c2ccccc2)C(=O)N1c1ccccc1)C(=O)Nc1cc(C)on1 (stereo unspecified)	3.1	-3	-14	9422	8	5	5
COc1cc2c(cc1OC)C(c1ccc(C(F)(F)F)cc1)CC(=O)N2 (stereo unspecified)	·	0	-24	3459	·	·	·
OC1(C2(O)CC(c3ccccc3)ON2)CCCCC1 (stereo unspecified)	-5.2	-3	-3	·	·	·	-9
Cc1ccc(-c2n[nH]c(=O)c3ccccc23)cc1S(=O)(=O)NCC1CCCO1 (stereo unspecified)	0.6	-8	-18	3903	-1	-1	10
CC(C)=C(NC(=O)c1ccccc1)C(=O)NN=Cc1ccc(O)cc1	6.6	·	·	·	-4	-1	5
COc1ccc(S(=O)(=O)N2CCCOC2CNC(=O)C(=O)NCCCn2ccnc2)cc1OC (stereo unspecified)	3.4	-8	-4	2570	6	3	-2
CCOCCCNC(=O)C(c1ccccc1)N(Cc1cccs1)C(=O)CNC(C)=O (stereo unspecified)	-2.5	1	-22	3042	5	-3	-4
O=C(CC1CCS(=O)(=O)C1)Nc1ccc[nH]c1=O (stereo unspecified)	0.8	4	-21	9703	-4	3	2
CC(=O)Oc1ccc(N2C(=O)c3cccc4c([N+](=O)[O-])ccc(c34)C2=O)cc1	1.3	6	-15	·	-13	2	1
CN1c2ccsc2/C(=N/Nc2ccccc2)CS1(=O)=O	·	0	-47	1800	·	·	·
O=C(Nc1cccc(C2OCCCO2)c1)c1cccs1	1.5	0	-31	2020	5	7	-1
CCn1c(SCC(=O)N(C)C)nc2cc(S(=O)(=O)N3CCOCC3)ccc21	2.0	-10	-11	?	8	3	3
O=C(c1noc2c1CCCC2)N1CCOCC1	7.1	-3	-8	10966	10	4	-6
Cc1ccc2c(c1)C(c1ccccc1)N(C(=O)c1ccc3c(c1)OCO3)CC(=O)N2 (stereo unspecified)	2.9	8	-12	3851	-4	6	33
COc1ccc(C(=O)NCc2nnc(SCC(=O)c3ccccc3)n2C)cc1OC	1.8	-4	-18	5649	4	13	7
O=C(COC(=O)c1ccc(O)cc1O)Nc1cccc2ccccc12	2.0	·	-14	3617	19	7	-2
CCc1ccccc1NC(=O)COc1ccc2oc(-c3ccc(OC)cc3)cc(=O)c2c1	4.7	1	-29	2368	4	-9	-10
CC(C)c1ccc(C(CC(=O)O)NC(=O)c2cccs2)cc1 (stereo unspecified)	5.3	1	-16	4635	5	-4	19
O=C(CN1CCCCCC1)Nc1ccccc1Oc1ccccc1	8.6	36	23	4042	8	6	10

Exported with values under each structure: part of the list above
Under each structure: RN4220 kill	BJeLR viability	PrP UTR inh	Autofluor counter	Mtb hypoxia rep	Mtb hypoxia rep growth	ugtP null kill
O=C(CN1CCCCCC1)Nc1ccccc1Oc1ccccc1
→ 8.6	36	23	4042	8	6	10
OC1(C2(O)CC(c3ccccc3)ON2)CCCCC1 (stereo unspecified)
→ -5.2	-3	-3	·	·	·	-9
CCOC(=O)N1CCN(C(=O)C2CCC(=O)N(CCCc3ccccc3)C2)CC1 (stereo unspecified)
→ 3.6	1	-30	5998	16	12	-5
